# Screening data as filed in PubChem BioAssay.
# Calb biofilm kill: clotrimazole potentiators killing C. albicans biofilm, primary screen, 4-compound mixtures; AID 1242, 2008; C. albicans biofilm persisters + clotrimazole, fluorescence viability; primary screen in compound mixtures of four per well; inhibition, % at 7.6 µM; actives 0.02% (n = 120,000);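 active = inhibition above 30.3% in the primary screen of four-compound pools, then above 30% when the compound was retested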;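 also: compounds exposed to preformed 24 h biofilms for 48 h; the number belongs to the whole pool; some results filed as inactive read as strong as hits; inactives centre near 12; 0% = biofilm with clotrimazole alone and 100% = kill control; retested singly at about 60 µM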
#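 Assay system: C. albicans biofilms / Medium: RPMI/MOPS medium, pH 7.0 / Schedule: biofilm formation 24 h, compound exposure 48 h, 37 °C / Measured by: Alamar Blue fluorescence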
# An asterisk follows results filed as active. Not all compounds are listed; rates above refer to the full screens.
SMILES,Calb biofilm kill
Cc1cccc(-c2n[nH]c(=S)n2/N=C/C=C/c2ccco2)c1,23
CCN1C(=O)/C(=C\c2ccncc2)SC1=S,25
CCOCc1c(C(=O)OCC(=O)Nc2ccc(C)c(S(=O)(=O)N(C)C)c2)oc2ccccc12,15
COc1cc(SC)ccc1C(=O)OC(C)C(=O)NC1CCCC1 (configuration not stated),8
COc1ccc(C2NCCc3cc(OC)c(OC)cc32)cc1OC (configuration not stated),15
O=C(NC(=S)N1CCN(C/C=C/c2ccccc2)CC1)c1cccnc1,23
Cc1cccn2cc(CCNC(=O)c3cccs3)nc12,-3
CCC(=O)c1cn(CC(=O)O)c2ccccc12,25
CSCCC(Nc1ccc(S(=O)(=O)N2CCOCC2)cc1[N+](=O)[O-])C(=O)OCC(=O)NCC(C)C (configuration not stated),6
C/C(=N\NC(=O)C(N)=O)c1ccc(OC(F)F)cc1,10
CN(NS(=O)(=O)c1ccc(Br)cc1)c1nc(C(F)(F)F)nc2ccccc12,18
CCC(=O)N1N=C(c2ccc(C)cc2)CC1c1ccco1 (configuration not stated),7
COc1ccc(OC)c(NC(=O)CC2SC(=NCc3ccccc3)NC2=O)c1 (configuration not stated),6
CC(=O)Nc1ccccc1C(=O)C(=O)Nc1ccc(C)c(C)c1,18
CN(C)S(=O)(=O)c1cccc(NC(=O)c2ccncc2)c1,4
CCCn1c(N)c(Br)c(=O)[nH]c1=O,8
CCn1c(SCC(=O)N/N=C/c2ccccc2OCC(=O)O)nnc1-c1ccc(C(C)(C)C)cc1,12
Cc1ccc(S(=O)(=O)N(C)c2ccc(OCC(=O)Nc3nc4c(ccc5ccccc54)s3)cc2)cc1,5
COc1ccc(-n2c(SCC(=O)Nc3ccccc3OC)nc(O)cc2=O)cc1,14
C=CCN(C(=O)CNC(=O)c1cccs1)C(C(=O)NC1CCCCC1)c1cccnc1 (configuration not stated),18
CSCCC(NS(=O)(=O)c1ccc2ccccc2c1)C(=O)OCC(=O)c1ccc(C(C)C)cc1 (configuration not stated),16
COc1ccc(S(=O)(=O)N2CCOCC2)cc1NC(=O)CN1CCC(Cc2ccccc2)CC1,2
O=C(CNC(=O)c1ccncc1)N/N=C/c1ccccc1[N+](=O)[O-],19
CC(C)(C)c1cc(NC(=O)Nc2ccc(Cl)cc2Cl)no1,32
O=C(N/N=C/c1ccc(-c2ccc([N+](=O)[O-])cc2)o1)[C@H]1C[C@@H]1c1ccccc1,1
CCN(C(=O)COC(=O)c1ccc(S(=O)(=O)N2CCCc3ccccc32)cc1)C1CCS(=O)(=O)C1 (configuration not stated),10
CC(C(=O)OCC(=O)c1cccc([N+](=O)[O-])c1)N1C(=O)C2C3CCC(C3)C2C1=O (configuration not stated),16
Cc1ccc(NC(=S)N(CCCN(C)C)Cc2cc3cc4c(cc3[nH]c2=O)OCO4)cc1,30
CN(C)CCCNC(=S)NCc1ccc(Cl)cc1,15
CC(C)(C)NC(=O)COC(=O)c1cc(Br)ccc1Cl,11
Cc1cccc(S(=O)(=O)Nc2nc3ccccc3nc2Nc2ccc3c(c2)OCO3)c1,3
N#Cc1ccc(NCC(=O)Nc2ccc3c(c2)OCCO3)cc1,7
CCCCOc1ccc(Br)cc1CSC(=N)N,10
Cc1cccc(NC(=S)NCc2cccs2)c1,12
O=C(COC(=O)c1ccc(Cl)c(S(=O)(=O)NCc2ccccc2)c1)NCC1CCCO1 (configuration not stated),4
CN1CC(=O)N(CC(=O)Nc2ccc(Br)cc2F)C1=O,13
CC(=O)c1ccc(NC(=O)Cn2nc(C)c([N+](=O)[O-])c2C)cc1,6
CCCCCCC1CC(=O)NC(=S)N1 (configuration not stated),18
c1ccc(CNc2nc(N3CCOCC3)nc(N3CCOCC3)n2)cc1,15
COc1cc(CCC(=O)OCC(=O)Nc2cccc(S(=O)(=O)N(C)C)c2)cc(OC)c1OC,14
COc1ccc2nc(SCC(C)=O)c(C#N)cc2c1,8
Cc1oc(C(C)(C)C)cc1C(=O)N1CCN(C(c2ccccc2)c2ccccc2)CC1,10
Cc1ccc(NNC(=O)c2cc(C(C)(C)C)nn2Cc2ccccc2)cc1,17
COC(=O)c1sccc1NC(=O)CSCCc1ccccn1,12
COc1ccc(C2CC(c3ccccc3)=NN2C(=O)COC(=O)c2nc3nc(C)cc(C)n3n2)cc1 (configuration not stated),14
C/C(Cc1ccccc1)=N\NC(=O)CNC(=O)Cc1ccccc1,21
O=C(Cn1nnc(-c2ccccc2)n1)N/N=C/c1ccc(-c2ccc(Cl)cc2)o1,7
Cc1ccnc(SCc2cn3c(C)cccc3n2)n1,19
COc1ccc(-c2csc3ncn(-c4ccc(C)cc4)c(=O)c23)cc1OC,20
COc1ccc2c(c1)CCC(C)N2S(=O)(=O)c1ccc(C2CNC(=O)C2)cc1 (configuration not stated),9
COc1ccc2cc(/C=N/NC(=O)c3c(Cl)cnn3C)c(Cl)nc2c1,12
C=CCOc1ccc(/C=N/O)cc1Cl,10
COc1ccc(NC(=O)/C=C/c2ccc(C)o2)cc1S(=O)(=O)N1CCOCC1,7
Cc1ccc(S(=O)(=O)ON2C(=O)c3cccc4cccc(c34)C2=O)cc1,15
Cc1ccnn1CC(=O)N/N=C/c1cn[nH]c1-c1ccccc1,6
CC1NC(=O)NC1CCCCCC(=O)Nc1ccc(F)cc1 (configuration not stated),19
CC(=O)Nc1ccc(NC(=O)Nc2ccc(C)cc2C)cc1,-2
OCCC#Cc1ccc(CN2CCN(Cc3ccsc3)C(CCO)C2)cc1 (configuration not stated),10
COCCSc1ccccc1C(=O)Nc1ccc([N+](=O)[O-])cc1OC,4
S=C(Nc1ccccc1Cl)NC1CCC(NC(=S)Nc2ccccc2Cl)CC1 (configuration not stated),14

# Taken from the results shown (2 entries):
SMILES,Calb biofilm kill
Cc1ccc(S(=O)(=O)ON2C(=O)c3cccc4cccc(c34)C2=O)cc1,15
Cc1ccnn1CC(=O)N/N=C/c1cn[nH]c1-c1ccccc1,6

# (next part)
SMILES,Calb biofilm kill
CCCCc1nc2sc3c(SCCN(C)C)ncnc3c2c2c1CCC2,18
CCC(=O)Nc1cccc(NC(=S)NC(=O)c2ccc(Cl)cc2Cl)c1,25
CCN(C(=O)COC(=O)CNC(=O)c1ccc(C)c(C)c1)C1CCS(=O)(=O)C1 (configuration not stated),14
c1ccc(-c2ncc(CN3CCN(c4ccccn4)CC3)[nH]2)cc1,17
CCOc1cccc(CNCCSc2nnnn2C)c1,41
c1ccc(CSC2=NNC(c3ccccn3)S2)cc1 (configuration not stated),13
O=C(Nc1ccccc1C(F)(F)F)c1ncn[nH]1,18
O=[N+]([O-])c1cc(-c2ncccn2)cs1,9
Fc1ccc(N2CCN(/C=C/c3nnnn3-c3ccccc3)CC2)cc1,12
Cn1c(=O)c2c(ncn2CC(=O)OCC(=O)Nc2ccccc2)n(C)c1=O,4
COc1ccc(S(=O)(=O)N2CCC(N3CCN(Cc4ccccc4)CC3)CC2)cc1,5
O=S(=O)(Nc1cccc(-c2nc3cccnc3s2)c1)c1cccs1,27
COc1ccc(CCCc2nnc(SCC(=O)Nc3ccc(OC)cc3)o2)cc1,9
O=C(O)c1ccc2c(=O)[nH]c(CCl)nc2c1,7
Cc1ccc(NC(=S)NNc2ncc(C(F)(F)F)cc2Cl)cc1,14
O=C(Cn1cc2c(n1)CCCCC2)Nc1ccccc1Br,29
CC(C(=O)OCc1nnc(-c2ccccc2)o1)N1C(=O)C2CCCCC2C1=O (configuration not stated),9
CCN(CC)C(=O)n1cnc(-c2ccccc2)c1-c1ccccc1,12
CCSCCc1nnc(NC(=O)Nc2cccc(C(F)(F)F)c2)s1,23
CCCCN(C(=O)c1ccc2c(c1)OCO2)c1ccccc1,-1
COc1cccc(C(=O)Nc2cccc(-c3ccc4nncn4n3)c2)c1OC,1
COc1ccc(NC(=O)COC(=O)Cc2c[nH]c3ccccc23)cc1OC,14
CCc1nnc(NS(=O)(=O)c2ccc(N/C=C\C(=O)c3cccc(OC)c3)cc2)s1,9
CCc1ccccc1NC(=O)COc1ccc(C(=S)N2CCCC2)cc1,-8
CC(C)N(CCO)C(=O)CCc1nnc(Cc2cccc(C(F)(F)F)c2)o1,28
Cc1ccc(-c2cc(C(F)(F)F)n3ncc(C(=O)N4CCCc5ccccc54)c3n2)cc1,9
CCCc1nc(Cl)c(C#N)c2c1CCCC2,7
O=[N+]([O-])c1cccc(/C=C2\CCC(/C=N/Nc3ccc4ccccc4n3)=C2N2CCOCC2)c1,4
COc1cccc(C(=O)NC(=S)Nc2ccc3oc(=O)ccc3c2)c1,8
CC(=O)c1cccc(N=Nc2c(-c3ccccc3)[nH]n(-c3ccccc3)c2=O)c1,3
Cc1ccccc1OCCN(C#N)c1nc(N(C)C)nc(N(C)C)n1,27
Cc1cc(C)n(-c2ccc(C(=O)Nc3cccc(S(=O)(=O)N4CCCC4)c3)cc2)n1,10
CCc1nnnn1-c1ccc([N+](=O)[O-])cc1C,15
CCc1nnc(NC(=O)CCCSc2nc3ccccc3[nH]2)s1,-8
O=C(NCc1cccs1)c1ccc(S(=O)(=O)N2CCOCC2)cc1,15
O=C(NNc1c(Cl)cc(Cl)cc1Cl)C1CCC1,13
Cc1nn(C)c(Oc2ccccc2)c1CCNC(=O)CCl,11
C/C(=N\O)C(C)Oc1ccc(Cl)cc1 (configuration not stated),8
CCc1ccc(C(=O)O)cc1,25
COc1ccc(CNC(=O)c2nnn(-c3cccc(C(F)(F)F)c3)c2N)cc1,1
CCc1n(CC(O)COC2CCCCC2)c2ccccc2[n+]1C (configuration not stated),25
CC(=O)N(Cc1ccccc1)c1ccccc1C(=O)O,14
Cc1ccc(S(=O)(=O)N/N=C/c2ccc(O)cc2O)cc1[N+](=O)[O-],0
CC1(C)CC2CN(C(=O)Cc3ccccc3)C(C)(C2)C1 (configuration not stated),13
Clc1ccc2nc(-c3ccc4c(c3)OCO4)cn2c1,7
CN(CCC#N)Cc1cc(=O)oc2ccc3ccccc3c12,5
O=C(CSc1nnc(SCc2ccc(Cl)cc2)s1)N/N=C/c1ccccc1C(=O)O,19
COc1c(C)cccc1C(=O)NC(=S)Nc1cccc2nsnc12,19
O=C(NC(=S)Nc1ccc(S(=O)(=O)N2CCCCC2)cc1)c1cccs1,20
CCN(CC)C(=O)Oc1cc(=O)n(C)c2ccccc12,15
CN(C1CCCCC1)S(=O)(=O)c1ccc(S(=O)(=O)N(CC(=O)Nc2ccccc2)C2CC2)cc1,20
O=C(CCc1nnc(CCCCc2ccccc2)o1)N(CCO)Cc1ccccc1,9
C=C1CCN([C@@H](C)C(=O)NCc2cc(OC)c(OC)c(OC)c2)S(=O)(=O)c2ccccc21,16
CCSc1ccccc1C(=O)NCCc1ccccc1,3
COC(=O)c1nc(Cl)c(Cl)c(N)c1Cl,9
COc1ccc(CNC(=O)C(c2ccco2)N(C(=O)CNS(=O)(=O)c2ccccc2)c2ccccc2C)cc1 (configuration not stated),18
COC(=O)N/N=C/c1cc(Br)ccc1O,14
CC(C)(C)n1nnnc1CN1CCN(C(c2ccccc2)c2ccccc2)CC1,13
CCn1ccnc1CN1CCCC(C(=O)c2ccc3c4c(cccc24)CC3)C1 (configuration not stated),14
Cn1c(-c2cccc([N+](=O)[O-])c2)[n+](C)c2ccccc21,12

# A different layout for part of the listing above:
canonical_smiles	Calb biofilm kill
CC1(C)CC2CN(C(=O)Cc3ccccc3)C(C)(C2)C1 (configuration not stated)	13
Clc1ccc2nc(-c3ccc4c(c3)OCO4)cn2c1	7
CN(CCC#N)Cc1cc(=O)oc2ccc3ccccc3c12	5
O=C(CSc1nnc(SCc2ccc(Cl)cc2)s1)N/N=C/c1ccccc1C(=O)O	19
COc1c(C)cccc1C(=O)NC(=S)Nc1cccc2nsnc12	19
O=C(NC(=S)Nc1ccc(S(=O)(=O)N2CCCCC2)cc1)c1cccs1	20
CCN(CC)C(=O)Oc1cc(=O)n(C)c2ccccc12	15
CN(C1CCCCC1)S(=O)(=O)c1ccc(S(=O)(=O)N(CC(=O)Nc2ccccc2)C2CC2)cc1	20
O=C(CCc1nnc(CCCCc2ccccc2)o1)N(CCO)Cc1ccccc1	9
C=C1CCN([C@@H](C)C(=O)NCc2cc(OC)c(OC)c(OC)c2)S(=O)(=O)c2ccccc21	16
CCSc1ccccc1C(=O)NCCc1ccccc1	3
COC(=O)c1nc(Cl)c(Cl)c(N)c1Cl	9
COc1ccc(CNC(=O)C(c2ccco2)N(C(=O)CNS(=O)(=O)c2ccccc2)c2ccccc2C)cc1 (configuration not stated)	18
COC(=O)N/N=C/c1cc(Br)ccc1O	14
CC(C)(C)n1nnnc1CN1CCN(C(c2ccccc2)c2ccccc2)CC1	13
CCn1ccnc1CN1CCCC(C(=O)c2ccc3c4c(cccc24)CC3)C1 (configuration not stated)	14

# (next part)
SMILES,Calb biofilm kill
O=C(CCn1c(=O)oc2ccccc21)Nc1ccon1,6
CC(C)(C)C(=O)Nc1sc(-c2ccccc2)cc1C(=O)O,18
COc1cc(N=Nc2c(O)c3ccccc3[nH]c2=O)c(OC)cc1N=Nc1ccccc1,12
CCOc1cc(/C=C/c2cc(C(=O)O)c3ccccc3n2)ccc1OC,11
CCNC(=O)CC1S/C(=N/N=C(\C)c2ccccc2)NC1=O (configuration not stated),-3
CC(C(=O)N1CCN(C2c3ccccc3-c3ccccc32)CC1)N1C(=O)c2ccccc2C1=O (configuration not stated),9
COc1cccc(/C=N/Nc2cc(-n3nc(C)cc3-c3ccccc3)ncn2)c1O,15
c1ccc(CN2CCC(N=C3NN=C(c4ccc5c(c4)OCCO5)CS3)CC2)cc1,15
O=C(NC1CC1)c1ccc(-n2cccc2)cc1,18
NC(=O)c1cc[n+](CC2=C(C(=O)O)N3C(=O)[C@@H](NC(=O)C(c4ccccc4)S(=O)(=O)[O-])[C@H]3SC2)cc1 (some centres not stated),12
O=C(Cn1cnc([N+](=O)[O-])n1)N/N=C/c1ccc(O)cc1O,15
CCOC(=O)N1CCN(C(=O)COc2ccccc2[N+](=O)[O-])CC1,7
O=C(NCCS(=O)c1ccc(Cl)cc1)c1cccc(Cl)c1 (configuration not stated),25
CCOc1ccc(Nc2cc(Nc3ccccc3OCC)nc(C=C(C#N)C#N)n2)cc1,23
CCOC(=O)C(NC(=O)NCc1ccccc1)(OCC)C(F)(F)F (configuration not stated),17
